gsp antag: antagonizes gsp, the McCune-Albright syndrome mutation. Potency, µM (titrated, usually from 76.9 µM), for inactives: top-dose activity change, negative = inhibition, hits mostly inhibitors. gsp-mutant cells, cAMP HTRF, 30 min; control for the full effect not named in the record. AID 624288. 340,000 tested, 0.4% active; active = falling curve of any shape with a large fitted effect; inconclusive = falling curve, mostly with a smaller effect; inactive = flat or rising curve; cell line not stated here;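 also: intracellular cAMP measured with PDE inhibitor Ro 20-1724 present during compound exposure; potency is read from the fitted curve at half-maximal effect; % is scaled to controls: 0 for no effect and ±100 for the full control effect; nearly all actives have a fitted effect of over 65% in size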
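Cells, 2000/well, grown 16–24 h in DMEM 10% FBS with 0.5 mg/ml G418, then compounds plus […] (300 uM addition stock), 30 min at 37C. cAMP read by HTRF (cAMP-d2 and anti-cAMP antibody-K in lysis buffer) after 30 min RT.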
Menin-MLL FL inh: displaces fluorescein MLL peptide from human menin | Fluorescence polarization, fluorescein-MLL peptide displacement from menin | 290,000 tested, under 10 active | FP activity change, % at 61.4 µM; inconclusive = falling polarisation curve, or a change in total fluorescence; inactive = total fluorescence flat and polarisation flat or rising; no compound was filed as active; the % refers to the polarisation; negative = inhibition;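 also: % of control where 0% means no effect; inhibitors lower the polarisation; unlabelled MLL peptide was the positive control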
TRPV1 PAM: potentiators of human vanilloid receptor 1 (TRPV1); TRPV1-expressing cells, Fluo-8 calcium influx, capsaicin EC20 potentiation; host cell line not named in the record; control for the full effect not named in the record; potentiation, % at 8.33 µM; 320,000 tested, 0.02% active; active means potentiation above 80%; inconclusive means 30% to 80%; inactive means below 30%; also: 0% is about no effect
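TRPV1-expressing cells were cultured overnight at 35.5C and loaded with Fluo-8 calcium dye for 40 to 90 min at room temperature. After a 10 s baseline, compound was added and calcium influx was read kinetically for 3 min (ex 480/em 520 nm).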
TRPML1 inh: blocks the human TRPML1 channel. TRPML1-inducible cells, Ca2+ dye fluorescence, FDSS; hits give low values; inhibition of EC80 agonist-evoked calcium signal. activity change, negative = inhibition, % (no concentration beside the values). 390,000 tested, 0.02% active; in the data active means activity change below about -50%; inconclusive means about -30% to -50%; inactive means above about -30%;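 also: stimulus is agonist 54-4 at its EC80 concentration; % is scaled to controls: 0 for no effect and ±100 for the full control effect; compound concentration not given in the record; the text of the record puts the active cut at -80%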
Target sequence (Q9GZU1 whole entry, looked up): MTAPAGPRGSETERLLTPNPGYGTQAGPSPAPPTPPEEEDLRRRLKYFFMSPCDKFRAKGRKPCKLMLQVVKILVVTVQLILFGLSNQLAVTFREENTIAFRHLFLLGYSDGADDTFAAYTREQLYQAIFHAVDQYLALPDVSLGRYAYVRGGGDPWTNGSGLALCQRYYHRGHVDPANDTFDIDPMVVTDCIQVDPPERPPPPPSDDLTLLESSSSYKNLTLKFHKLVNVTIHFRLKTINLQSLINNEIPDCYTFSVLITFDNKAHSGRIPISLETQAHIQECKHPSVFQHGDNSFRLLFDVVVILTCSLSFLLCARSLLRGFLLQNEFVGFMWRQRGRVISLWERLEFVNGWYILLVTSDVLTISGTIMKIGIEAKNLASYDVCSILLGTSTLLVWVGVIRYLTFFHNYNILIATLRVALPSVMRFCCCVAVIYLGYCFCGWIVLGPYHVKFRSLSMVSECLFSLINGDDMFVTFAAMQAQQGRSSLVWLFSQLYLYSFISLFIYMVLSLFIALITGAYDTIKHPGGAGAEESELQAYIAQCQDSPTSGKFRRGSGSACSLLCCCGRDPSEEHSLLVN
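TRPML1-DL cells, Tet-induced overnight (~16 h, 37 °C) at 1,500 cells/well, were loaded with Ca8 no-wash dye plus quencher for 45-90 min at room temperature. Compounds were pinned during FDSS kinetic reading; agonist 54-4 at EC80 (4 uM final) then added.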
Sfp PPTase inh: Sfp phosphopantetheinyl transferase inhibition. Q9F4F7. Biochemical Sfp PPTase activity, qHTS. Potency, µM, inactives show max response, negative = inhibition, hits mostly inhibitors. 310,000 tested, 3.5% active. AID 1490; active = well fitted inhibition curve with a large enough effect; inconclusive = small, poorly fitted or top-dose-only effect, or another doubt; inactive = no such curve, though single readings can be large or run the other way;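 also: the enzyme is Sfp with the accession as filed and its product quenches rhodamine fluorescence; potency is read from the fitted curve at half-maximal effect; 0% = enzyme reaction without inhibitor and -100% = no enzyme wells; top concentration of the series not given in the record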
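Compounds were incubated with enzyme (final 15 nM) for 15 min at room temperature before substrate addition started the reaction. Fluorescence at 525 nm excitation, 598 nm emission was recorded immediately and after 30 minutes.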
ClpP mod: qHTS Assay for Activators of ClpP. ATP-dependent Clp protease proteolytic subunit (Bacillus subtilis (strain 168)), P80244. purified B. subtilis ClpP, FRET peptide cleavage, 20 min. Potency, µM (titrated, usually from 57.5 µM), for inactives: at the highest dose activity change, negative = active. 340,000 tested, 1.9% active. AID 651965, 2013; active = well fitted falling curve with a large enough effect; inconclusive = small, poorly fitted or top-dose-only effect; inactive = no such curve, though single readings can be large or run the other way; also: potency is read from the fitted curve at half-maximal effect; the source files actives as falling curves though it sought activators and does not explain the sign; nearly all actives have a fitted effect of over 65% in size; many hits overshoot -100%
Target sequence (P80244 whole entry, looked up): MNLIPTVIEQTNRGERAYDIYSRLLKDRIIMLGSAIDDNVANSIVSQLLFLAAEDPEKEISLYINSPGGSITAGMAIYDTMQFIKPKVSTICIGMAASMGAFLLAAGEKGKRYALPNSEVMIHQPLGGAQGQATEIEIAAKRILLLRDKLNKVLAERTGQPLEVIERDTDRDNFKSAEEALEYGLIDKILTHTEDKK
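FRET quenching reversal measured ClpP activation: 10 microg/mL B. subtilis ClpP at pH 8 with the FRET-FV decapeptide, read at 430 nm after 320 nm excitation. The 20-min minus 0-min signal was scaled between DMSO/no-enzyme wells and ADEP (5.8 microM final).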
gsp ag: activates gsp, the McCune-Albright syndrome mutation. gsp mutant cells, cAMP HTRF, 30 min; control for the full effect not named in the record. Potency, µM (doses to about 76.9 µM), inactives show top-dose activation (cAMP increase), most hits filed as activators. 340,000 tested, 0.13% active. AID 624287; active = well fitted activation curve with a large enough effect; inconclusive = small, poorly fitted or top-dose-only effect, or another doubt; inactive = no such curve, though single readings can be large or run the other way; cell line not stated here;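 also: phosphodiesterase inhibitor Ro 20-1724 added with compounds to block cAMP breakdown; potency is read from the fitted curve at half-maximal effect; nearly all actives have a fitted effect of over 60% in size; about a fifth of the inactives were tested at one dose only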
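Cells in DMEM/10% FBS with G418 were pretreated with compounds in DMSO plus […] (300 uM stock) for 30 min at 37C. cAMP was measured by HTRF (cAMP-d2 plus anti-cAMP antibody-K) after 30 min at room temperature.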
* marks the source's active call; other numbers are inactive results; ? = inconclusive; . = no result given; [ ] = dose if it differs, or a comment.

SMILES	gsp antag	Menin-MLL FL inh	TRPV1 PAM	TRPML1 inh	Sfp PPTase inh	ClpP mod	gsp ag
O=C(O)C1CC=CCC1C(=O)Nc1ccccc1C(=O)N1CCN(c2ccc(F)cc2)CC1 (stereo not drawn)	0%	-1.5	16	0	-4%	-1.8%	-17%
O=C(NCCNC(=O)C1CC2CCC1C2)C1CC2CCC1C2 (stereo not drawn)	7%	0.3	-2	-4	5%	2.7%	?
O=C1CSC(c2ccccc2)N1c1cccnc1 (stereo not drawn)	-8%	3.5	?	18	7%	-1.9%	17%[15.4 µM]
CS(=O)(=O)c1ccc2nc(NC(=O)C3COc4ccccc4O3)sc2c1 (stereo not drawn)	-28%	-0.1	-3	-13	5%	-5.5%	-5%
Cc1ccc(S(=O)(=O)N(CC(=O)O)c2ccc(Cl)c(C(F)(F)F)c2)cc1	-18%	-1.4	14	-6	27%	.	13%[15.4 µM]
Cc1ccsc1-c1nc(CSCC(=O)NCc2ccc3c(c2)OCO3)c(C)o1	-20%	-2.7	-9	3	-23%	3.6%	-24%
O=C1CN(C(=O)COC(=O)Cc2ccsc2)c2ccccc2N1	2%	5.1	-9	-5	12%	-0.8%	1%
COc1cc(NC(=O)CNc2cccc(S(=O)(=O)N3CCCC3)c2)cc(OC)c1	-7%	.	-2	-1	3%	-2.7%	-11%
O=S(=O)(c1cccc(-c2nnc(-c3ccc(Br)cc3)o2)c1)N1CCCCCC1	17%	2.5	-7	6	2%	-5.4%	0%
Cn1c(=O)c2c(nc(SCc3ccccc3F)n2C)n(C)c1=O	3%	-0.6	-2	-9	-10%	-5.8%	0%[15.4 µM]
O=C(NCc1cccnc1)Nc1cccc(NC(=O)NCc2cccnc2)c1F	8%	-0.9	-3	9	?	.	11%
O=C(COC(=O)c1ccccc1)NCCC1=CCCCC1	2%	-1.9	-17	2	17%	-0.6%	-13%[15.4 µM]
CC(=O)Nc1ccc(S(=O)(=O)NC(C)C(=O)NC(C)c2ccccc2)cc1 (stereo not drawn)	-5%	-2.1	-1	22	4%	.	-12%[15.4 µM]
O=C(Cc1ccccc1)Nc1c2c(nn1-c1cccc(Cl)c1)CS(=O)(=O)C2	5%	0.5	19	-5	18%	0.8%	20%
CCOc1ccc(/C=C/C(=O)N2CCOCC2)cc1OC	9%	4.9	-7	.	14%	?	0%
CN(C)c1nc(Nc2ccccc2)nc(Oc2ccc(=O)[nH]n2)n1	-4%	-0.9	4	-4	7%	-3.1%	2%
NC(=O)CN1C(=O)/C(=c2\sc3nc(=O)c(Cc4ccccc4)nn3c2=O)c2ccccc21	0%	3.5	-7	3	11µM*	.	-37%[inhibitor][15.4 µM]
Cc1cc(C)c2c(N)c(C(=O)NN)sc2n1	12%	4.0	-20	.	-10%	-19%	-35%[inhibitor]
Cc1cc(C)n(CC(=O)n2nc(C)cc2C)n1	5%	5.8	-10	3	15%	0.0%	8%
O=C(NCC(c1ccco1)N1CCc2ccccc2C1)C(=O)Nc1ccc(F)cc1F (stereo not drawn)	-18%	.	-4	3	.	-2.0%	-1%
O=C(O)/C=C/C(=O)Nc1cccnc1	7%	0.5	-3	-19	11%	1.2%	1%[15.4 µM]
Cc1ccc(OCCCCCN2CCOCC2)cc1	13%	-0.4	5	-8	19%	1.6%	-7%[15.4 µM]
COc1ccc(S(=O)(=O)N2CCCCCC2)cc1C(=O)N1CCN(c2ccccc2C)CC1	?	.	2	25	.	0.1%	?
COC(=O)c1ccc(S(=O)(=O)N2CCCN(Cc3ccccc3)CC2)n1C	-3%	3.4	2	-22	16%	-2.7%	-9%[15.4 µM]
Cc1ccc(N2CCN(S(=O)(=O)c3ccc(F)c(C)c3)CC2)c(C)c1	-9%	2.4	7	-20	-3%	0.7%	12%

Five entries drawn at random from those above:
SMILES	gsp antag	Menin-MLL FL inh	TRPV1 PAM	TRPML1 inh	Sfp PPTase inh	ClpP mod	gsp ag
Cc1ccc(OCCCCCN2CCOCC2)cc1	13%	-0.4	5	-8	19%	1.6%	-7%[15.4 µM]
O=C1CSC(c2ccccc2)N1c1cccnc1 (stereo not drawn)	-8%	3.5	?	18	7%	-1.9%	17%[15.4 µM]
O=C(O)/C=C/C(=O)Nc1cccnc1	7%	0.5	-3	-19	11%	1.2%	1%[15.4 µM]
O=C(NCc1cccnc1)Nc1cccc(NC(=O)NCc2cccnc2)c1F	8%	-0.9	-3	9	?	.	11%
Cc1ccsc1-c1nc(CSCC(=O)NCc2ccc3c(c2)OCO3)c(C)o1	-20%	-2.7	-9	3	-23%	3.6%	-24%

New compounds follow:
SMILES	gsp antag	Menin-MLL FL inh	TRPV1 PAM	TRPML1 inh	Sfp PPTase inh	ClpP mod	gsp ag
CNC(=O)c1sc(N2N=C3/C(=C/c4ccccc4)CCCC3C2c2ccccc2)nc1C (stereo not drawn)	-2%	?	-16	-6	-20%	-4.8%	2%
CC(NC(=O)CN1C(=O)NC2(CCCC2)C1=O)c1ccc2ccccc2c1 (stereo not drawn)	-3%	.	21	-7	.	3.4%	-36%[inhibitor]
O=C(CN(C(=O)c1csnn1)c1cccc(C(F)(F)F)c1)NCCc1ccccc1	-1%	4.1	6	27	6%	.	-1%
CCCCCC(=O)NC(=S)Nc1cccc(-c2nc3ncccc3o2)c1	-1%	-0.3	5	-7	11%	.	0%[15.4 µM]
Cc1cc(C=O)c(C)n1-c1sc2c(c1C(=O)O)CCCC2	?	2.5	-2	-2	15%	-0.4%	-28%
COc1ccc(-c2noc(C3CCCN(C(=O)c4c(F)cccc4F)C3)n2)cc1OC (stereo not drawn)	-7%	-0.8	-6	-3	15%	.	-16%
CC(=O)c1nn(-c2ccc(Cl)cc2)cc1C(=O)c1ccccc1	-9%	.	.	35	.	0.4%	-6%[15.4 µM]
CC1(C)Cc2nc(NCCCO)c(C#N)cc2CO1	14%	1.4	4	13	-1%	31%	-45%[inhibitor]
CCCC(=O)Nc1cc(OC)c(OC)cc1C(=O)O	3%	1.8	-5	-5	-1%	-15%	-11%
CSc1snc(SCC(N)=O)c1C#N	0%	0.5	1	20	23%	-2.9%	?
COc1ccc(C(=O)Nc2ccc3c(c2)C(=O)N(C)C3=O)cc1OC	9%	7.0	12	5	12%	10%	-4%[15.4 µM]
COc1ccc(CN(C)C(=O)C2CSC3(C)CCC(=O)N23)cc1 (stereo not drawn)	6%	.	-4	17	.	.	26%[15.4 µM]
O=c1c2ccccc2n(CC(O)CN2CCCCC2)c2ccccc12 (stereo not drawn)	7%	-12	9	-7	3%	.	7%[15.4 µM]
CCOc1ccc(CN(C)C(=O)c2ccc(=O)[nH]c2)cc1	5%	-2.8	-24	4	9%	.	9%[15.4 µM]
Cc1ccc(-n2c(C)cc(C(=O)COC(=O)c3c(C)noc3C)c2C)cc1	-26%	1.5	6	17	-14%	-1.3%	-1%
CC1(c2ccccc2)NC(=O)N(CC(=O)Nc2ccccc2N2CCCC2)C1=O (stereo not drawn)	?	.	?	-8	.	1.2%	8%
CCOC(=O)N1CCN(CC(=O)N2c3ccccc3Sc3ccccc32)CC1	-21%	.	17	0	?	0.3%	-3%[15.4 µM]
CN(Cc1ccccc1)c1cc(Cl)nc(N)n1	12%	-2.2	5	22	-3%	0.2%	18%
CC1CN(CC(=O)NCc2ccc(F)cc2)CC(C)O1 (stereo not drawn)	8%	-2.9	2	2	2%	.	-19%
CC(=O)N1c2ccc(S(=O)(=O)N(C)CC(=O)NC3CCCCC3C)cc2CC1C (stereo not drawn)	5%	.	0	-9	0%	-1.0%	?
O=C(Nc1ccncc1)c1cccc2ccccc12	3%	-0.5	.	11	-1%	.	2%[15.4 µM]
Cc1ccc2cc(C)c3nnc(SCC(=O)Nc4nc5c(s4)CCCC5)n3c2c1	.	0.6	16	.	27%	.	.
CC(=O)N1CCc2cc(S(=O)(=O)NC(C(=O)N3CCN(c4ccccc4F)CC3)C(C)C)ccc21 (stereo not drawn)	-4%	.	.	6	.	1.7%	-19%
Cc1onc(-c2ccccc2)c1C(=O)NNC(=S)NC(=O)/C=C/c1cccs1	-5%	-1.0	2	-5	26%	0.5%	-3%
COc1ccc(C(CNC(=O)C(CCSC)NC(=O)c2ccccc2OC)N2CCCCC2)cc1 (stereo not drawn)	6%	.	-3	7	7%	-4.5%	-2%[15.4 µM]
More structures follow.
SMILES	gsp antag	Menin-MLL FL inh	TRPV1 PAM	TRPML1 inh	Sfp PPTase inh	ClpP mod	gsp ag
O=C(COC(=O)c1ccc2c(c1)OCO2)NC1CCCCC1	12%	.	.	49	.	-14%	-35%[inhibitor]
O=C(Nc1cnc2ccccn2c1=O)c1ccc(Cl)cc1Cl	-17%	-1.2	-14	-3	10%	.	-9%[15.4 µM]
CC1CCN(S(=O)(=O)N2CCC(C(=O)NCc3ccc4c(c3)OCO4)CC2)CC1	11%	-2.8	-5	2	-12%	1.3%	2%[15.4 µM]
O=C(COC(=O)c1ccc[nH]c1=O)NCCCc1ccccc1	10%	.	1	-3	.	-26%	-18%
CSc1c[n+]2c(n1C)CCC2	6%	6.3	-2	-4	10%	0.6%	-10%
COc1ccc(C(=O)Nc2ccc(N3CCCC3)cc2)cc1Br	?	11	-9	-1	-2%	?	-5%[15.4 µM]
CCCCOc1ccc(C(=O)OC2CC(C)N(C)CC2C)cc1 (stereo not drawn)	17%	1.0	?	-11	7%	-1.6%	-3%
O=C(O)CCc1ccc(-c2cccs2)n1CC1CCCO1 (stereo not drawn)	-12%	0.2	-1	-1	-20%	25µM*	?
COc1ccc(OC)c(CNC(=O)C2CCN(S(=O)(=O)N3CCC(C)CC3)CC2)c1	-8%	2.4	-4	19	20%	-0.6%	?
COc1cccc2cc(-c3cn4cccc(C)c4n3)c(=O)oc12	4%	.	.	-4	.	-5.5%	7%
CNc1c(N)c(=O)oc2ccccc12	-19%	-1.6	-17	3	-12%	.	-11%[15.4 µM]

Source: PubChem (National Center for Advancing Translational Sciences (NCATS))
